Compound activity from PubChem.
Cycloheximide cs: counter-screen for Shiga toxin inhibitors: cycloheximide protein synthesis inhibition; max response, %; actives 12% (n = 300,000); cell reporter, cycloheximide protein synthesis inhibition counterscreen; in the data active = max response mostly above about 13%, no sharp cut-off; inactive = mostly below about 14%; also: read at 38.3 µM for the half of the compounds with a filed dose; 0% is about no effect
TbPYK inhibitor: blocks Trypanosoma brucei pyruvate kinase | TbPYK enzyme, Kinase-Glo Plus ATP luminescence, 45 min | Potency, µM (doses to about 76.8 µM), inactives show at the top dose activity, negative = inhibition, usual class: inhibitors | actives 0.12% (n = 410,000) | AID 624173; also: potency is read from the fitted curve at half-maximal effect; % is scaled to controls: 0 for no effect and ±100 for the full control effect; nearly all actives have a fitted effect of over 50% in size
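Enzyme and substrate buffer are dispensed first and compound is pin-transferred. ADP at 130 uM final then starts the reaction, which runs 45 min at room temperature. Detection reagent is added for 10 min before luminescence is imaged.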
LmPK inh: LmPK (Leishmania mexicana) enzyme inhibition; Q27686; purified LmPK, Kinase-Glo ATP luminescence, 1 h; Potency, µM (doses to about 57.5 µM), for inactives: at the highest dose activity change, negative = inhibition, hits mostly inhibitors; actives 0.37% (n = 290,000); AID 1721; also: potency is read from the fitted curve at half-maximal effect; % is scaled to controls: 0 for no effect and ±100 for the full control effect
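0.1 nM LmPK, 0.5 mM PEP, 0.1 mM ADP; 50 mM imidazole pH 7.2, 7 mM MgCl2, 50 mM KCl; 1 h RT. Kinase-Glo luminescence readout, normalized to no-enzyme (full inhibition) and uninhibited wells.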
Shiga inhibitor: inhibitors of Shiga toxin in Vero cells; Vero cells, Shiga toxin protein synthesis inhibition reporter; actives 9.2% (n = 290,000); inhibition, % at 38.7 µM; AID 2315; in the data active = inhibition mostly above about 28%, no sharp cut-off; inactive = mostly below about 43%; also: 0% is about no effect
* hit, by the source's call; x = not tested or not shown; & = joins results of further samples. Unless noted, calls follow the shape of the dose curve; as a rule, active = well fitted curve in the direction sought with a large enough effect; inconclusive = small, poorly fitted or top-dose-only effect, or another doubt; inactive = no such curve, though single readings can be large; an effect the other way counts as inactive or inconclusive.

The line under a structure holds: Cycloheximide cs, TbPYK inhibitor, LmPK inh, Shiga inhibitor
> Cc1cc2nc(CSc3ccccc3)cc(=O)n2[nH]1
→ -1, 0%, 2%, 27
> COc1cc2c(cc1OC)C1C(=O)c3cc(OS(C)(=O)=O)c(OC)cc3C1N(C)C2=O (centres undefined)
→ x, -3%, x, x
> O=C1NC[C@H](c2ccccc2)OC(=O)[C@@H](Cc2ccc(F)cc2)CC/C=C/C[C@H]1CC(=O)N(CCO)Cc1ccccc1
→ x, -1%, x, x
> O=C1NC[C@@H](c2ccccc2)OC(=O)[C@@H](Cc2ccc(F)cc2)CC/C=C/C[C@H]1CC(=O)N(CCO)Cc1ccccc1
→ x, -2%, x, x
> O=C1NC[C@H](c2ccccc2)OC(=O)[C@H](Cc2ccc(F)cc2)CC/C=C/C[C@@H]1CC(=O)N(CCO)Cc1ccccc1
→ x, 0%, x, x
> O=C(NCc1ccccc1)[C@H]1C[C@@H]1[C@H](NP(=O)(c1ccccc1)c1ccccc1)c1ccccc1
→ 5, -3%, -2%, 28
> N#Cc1ccc(C2N=C(c3ccccc3)NO2)cc1 (centres undefined)
→ 51*, 4%, 3%, 90*
> COc1ccc(CCN(C)CCCC(C#N)(c2cc(OC)c(OC)c(OC)c2)C(C)C)cc1OC (centres undefined)
→ 8, 4%&18%, 2%, 20
> CCCCCCCCCCCCCCCC[N+](C)(C)C
→ x, -3%&2%, x, x
> O=C1NC[C@@H](c2ccccc2)OC(=O)[C@@H](Cc2ccc(F)cc2)CC/C=C/C[C@@H]1CC(=O)N(CCO)Cc1ccccc1
→ x, 1%, x, x
> COc1cc(SC)ccc1C(=O)Nc1cc(C)ccn1
→ 40*, -9%, -9%, 72*
> O=C1NC[C@@H](c2ccccc2)OC(=O)[C@H](Cc2ccc(F)cc2)CC/C=C/C[C@H]1CC(=O)N(CCO)Cc1ccccc1
→ x, 4%, x, x
> c1cc2c(c(NC3=NCCN3)c1)CCCC2
→ x, -3%, x, x

Some of these compounds in order of SMILES length, rising:
The line under a structure holds: Cycloheximide cs, TbPYK inhibitor, LmPK inh, Shiga inhibitor
> CCCCCCCCCCCCCCCC[N+](C)(C)C
→ x, -3%&2%, x, x
> COc1cc(SC)ccc1C(=O)Nc1cc(C)ccn1
→ 40*, -9%, -9%, 72*
> Cc1cc2nc(CSc3ccccc3)cc(=O)n2[nH]1
→ -1, 0%, 2%, 27
> COc1cc2c(cc1OC)C1C(=O)c3cc(OS(C)(=O)=O)c(OC)cc3C1N(C)C2=O (centres undefined)
→ x, -3%, x, x
> O=C(NCc1ccccc1)[C@H]1C[C@@H]1[C@H](NP(=O)(c1ccccc1)c1ccccc1)c1ccccc1
→ 5, -3%, -2%, 28
> O=C1NC[C@@H](c2ccccc2)OC(=O)[C@H](Cc2ccc(F)cc2)CC/C=C/C[C@H]1CC(=O)N(CCO)Cc1ccccc1
→ x, 4%, x, x
> O=C1NC[C@@H](c2ccccc2)OC(=O)[C@@H](Cc2ccc(F)cc2)CC/C=C/C[C@H]1CC(=O)N(CCO)Cc1ccccc1
→ x, -2%, x, x
> O=C1NC[C@@H](c2ccccc2)OC(=O)[C@@H](Cc2ccc(F)cc2)CC/C=C/C[C@@H]1CC(=O)N(CCO)Cc1ccccc1
→ x, 1%, x, x

The list is partial; count on the stated rates, not on these rows.
